Screens: PubChem BioAssay, Center for Chemical Genomics, University of Michigan
CDC25B CDK2 inh – human CDC25B-CDK2/CyclinA binding inhibition | P30305+P24941 | HTRF CDC25B-CDK2/CyclinA binding, anti-His/anti-Flag; stronger effect = higher value | z-score (no concentration beside the values) | 0.72% of 94,000 active | AID 1259370;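 note: score is relative to mean and SD of negative controls; strong numbers were not always called active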
TAR Tat displ – HIV-1 TAR-Tat binding disruption | HIV-1 TAR RNA, Tat peptide displacement FRET; stronger effect = higher value | z-score (no concentration beside the values) | 0.6% of 100,000 active;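 note: score is relative to mean and SD of negative controls; some compounds called inactive have numbers as strong as hits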
* hit, by the source's call.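 Rule for the calls: active = z-score from 3 up in half or more of its runs; inactive = the rest.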

How did O=S(=O)(Nc1ccc(S(=O)(=O)Nc2ncccn2)cc1)c1ccc(Cl)cc1 do in these assays?
CDC25B CDK2 inh: 2.9

Results for O=C(CSc1nnnn1-c1ccc(C(=O)O)cc1)NC1CCCCC1 ?
CDC25B CDK2 inh: -1.4; TAR Tat displ: 1.1

What do the screens show for `Cc1ccc(S(=O)(=O)n2nc(-c3cccnc3)nc2NCc2ccco2)cc1`?
CDC25B CDK2 inh: 0.18; TAR Tat displ: -0.35

How did O=C(CCCc1ccccc1)Nc1nnc2n1CCCS2 do in these assays?
TAR Tat displ: 1.3

How did CCc1ccc(S(=O)(=O)Nc2cccc(-c3ccc(N4CCCC4)nn3)c2)cc1 do in these assays?
TAR Tat displ: 0.44

What do the screens show for `CC1CCCCC1NC(=O)CN(C)S(=O)(=O)c1ccc2c(c1)CCC(=O)N2` (stereo not drawn)?
CDC25B CDK2 inh: -0.79

What do the screens show for `COc1ccc(C(=O)CSc2n[nH]c(-c3ccco3)n2)cc1`?
CDC25B CDK2 inh: 0.08; TAR Tat displ: -0.3

Results for Cc1ccc(CC2CC(=O)N(c3ccccn3)C2=O)cc1 (stereo not drawn) ?
CDC25B CDK2 inh: -3.9; TAR Tat displ: 0.66

What do the screens show for `CC(C)C(=O)Nc1nnc(S(=O)(=O)N2CCCC2)s1`?
CDC25B CDK2 inh: -1.5; TAR Tat displ: 1.9

How did Cc1cccc(OCc2nnc3sc(/C=C/c4cccs4)nn23)c1 do in these assays?
CDC25B CDK2 inh: -0.07; TAR Tat displ: -0.06

How did O=c1ccc(-c2ccc(S(=O)(=O)NCc3ccc4c(c3)OCO4)s2)n[nH]1 do in these assays?
TAR Tat displ: 0.31

How did CCc1cc2c(N3CCC(C(=O)NCCc4ccsc4)CC3)ncnc2s1 do in these assays?
TAR Tat displ: 0.86

What do the screens show for `COc1ccc(CCNc2nc3ccc(C)cc3n3cnnc23)cc1OC`?
CDC25B CDK2 inh: -0.01; TAR Tat displ: 1.5

How did Fc1ccc(-n2cc(-c3ccccc3)c3c(NC4CCCC4)ncnc32)cc1 do in these assays?
CDC25B CDK2 inh: -0.49

How did CC1(C)Cc2c(ccc3ccccc23)C(Sc2ccc(N)cc2)=N1 do in these assays?
CDC25B CDK2 inh: 1.1

How did O=C(Nc1cccs1)Nc1ccccc1N1CCCCC1 do in these assays?
CDC25B CDK2 inh: -1.5

How did COc1cc(OC)c(-n2nnc(-c3nc(-c4ccc(OC)c(OC)c4)no3)c2C)cc1Cl do in these assays?
TAR Tat displ: 0.37

What do the screens show for `Cc1nc(Nc2nc3ccccc3o2)nc2c1CCC2`?
CDC25B CDK2 inh: -1.6; TAR Tat displ: -0.18

What do the screens show for `O=c1cc(CSCc2ccccc2)nc2sccn12`?
CDC25B CDK2 inh: 0.28; TAR Tat displ: 0.55

Results for c1ccc(-c2cnc(-c3ccccc3)o2)cc1 ?
CDC25B CDK2 inh: -0.66; TAR Tat displ: 1.3

How did CCc1cc2c3c([nH]c2cc1S(=O)(=O)N1CCN(Cc2ccc4c(c2)OCO4)CC1)CCCC3=O do in these assays?
TAR Tat displ: 3.2

What do the screens show for `CC12CCC(c3c1noc3C(F)(F)F)C2(C)C` (stereo not drawn)?
CDC25B CDK2 inh: -1.9

Results for O=C(C1COc2cc(S(=O)(=O)NCCN3CCOCC3)ccc2O1)N1CCOCC1 (stereo not drawn) ?
TAR Tat displ: 0.28

What do the screens show for `CCOC(=O)N1CCN(C(=O)CC(C)S(=O)(=O)c2cc3c(cc2C)NC(=O)CO3)CC1` (stereo not drawn)?
TAR Tat displ: 1.2

How did Fc1ccc(-c2nnc3sc(CN4CCc5ccccc5C4)cn23)cc1 do in these assays?
CDC25B CDK2 inh: -0.19; TAR Tat displ: -1.1

Results for CCOc1ccc(CN2CCN(Cc3cc(Br)ccc3O)CC2)cc1 ?
CDC25B CDK2 inh: 1.8; TAR Tat displ: -0.9

Results for NC(=O)C1CCN(C(=O)CSc2c3c(nc4cc(Cl)ccc24)CCCC3)CC1 ?
CDC25B CDK2 inh: -3.3

What do the screens show for `O=S(=O)(NC(c1ccccc1)c1ccccc1)c1ccc(N2CCCCS2(=O)=O)cc1`?
TAR Tat displ: 0.36

What do the screens show for `COC(=O)c1c(NC(=O)Cn2nc([N+](=O)[O-])c(Cl)c2C)sc2c1CCCC2`?
TAR Tat displ: 0.42

How did CN(C)c1ccc(C(CNS(=O)(=O)c2ccc3c(c2)OCCO3)N(C)C)cc1 (stereo not drawn) do in these assays?
TAR Tat displ: -1.2

The list goes on, starting with the last 3 of the part before.
What do the screens show for `O=S(=O)(NC(c1ccccc1)c1ccccc1)c1ccc(N2CCCCS2(=O)=O)cc1`?
TAR Tat displ: 0.36

What do the screens show for `COC(=O)c1c(NC(=O)Cn2nc([N+](=O)[O-])c(Cl)c2C)sc2c1CCCC2`?
TAR Tat displ: 0.42

How did CN(C)c1ccc(C(CNS(=O)(=O)c2ccc3c(c2)OCCO3)N(C)C)cc1 (stereo not drawn) do in these assays?
TAR Tat displ: -1.2

What do the screens show for `Cc1ccc(-n2nnc(-c3nc(-c4cccnc4)no3)c2N)cc1`?
TAR Tat displ: -0.85

How did CN1CCC2(CCN3CCc4c(oc5ccccc45)C3C2)N(C)C1=O (stereo not drawn) do in these assays?
CDC25B CDK2 inh: -1.1

How did O=C1CNC(=S)N1CCOc1ccccc1Cl do in these assays?
CDC25B CDK2 inh: -0.02

Results for CCOC(=O)c1[nH]c(C)c(C(=O)NC(C)CC)c1C (stereo not drawn) ?
CDC25B CDK2 inh: -0.89; TAR Tat displ: 2

Results for Cc1cc2cc(CCNC(=O)c3cc4ccccc4oc3=O)c(=O)[nH]c2cc1C ?
CDC25B CDK2 inh: -1.5

Results for COc1cccc(N2C=CC(C)(C)NC2=S)c1 ?
CDC25B CDK2 inh: -0.91

How did COc1cccc(/C=C/c2nc(C#N)c(N3CCCCC3)o2)c1 do in these assays?
CDC25B CDK2 inh: -1.4; TAR Tat displ: 1.1

Results for O=S(=O)(c1ccccc1)c1cnc2ccc(Cl)cc2c1N1CCCCC1 ?
CDC25B CDK2 inh: -0.34; TAR Tat displ: 3.7

Results for Cn1cnc(S(=O)(=O)N2CCCC(C(=O)Nc3ccc(F)cc3)C2)c1 (stereo not drawn) ?
TAR Tat displ: 1.3

Results for O=C(NCC1CCCO1)c1cccc(-c2nc(-c3ccccc3)no2)c1 (stereo not drawn) ?
TAR Tat displ: 0.82

What do the screens show for `CSc1nc(-c2ccc(F)cc2)nc2c1Cc1c(CO)cnc(C)c1O2`?
TAR Tat displ: 0.95

What do the screens show for `O=C(Cc1csc2ccccc12)NCCC1=CCCCC1`?
CDC25B CDK2 inh: -0.87; TAR Tat displ: 0.73

Results for FC(F)(F)c1cccc(-n2c(Cc3ccccc3)n[nH]c2=S)c1 ?
CDC25B CDK2 inh: -0.9

How did CCCNC(=O)c1ncoc1-c1cccs1 do in these assays?
TAR Tat displ: 1.6

What do the screens show for `CCOCCOC(=O)C1=C(C)NC2=C(C(=O)CCC2)C1c1cc(Br)c(O)c(OC)c1` (stereo not drawn)?
CDC25B CDK2 inh: -1.6; TAR Tat displ: 0.96

Pulled by compound from above, six records:
What do the screens show for `Cc1nc(Nc2nc3ccccc3o2)nc2c1CCC2`?
CDC25B CDK2 inh: -1.6; TAR Tat displ: -0.18

What do the screens show for `COc1ccc(C(=O)CSc2n[nH]c(-c3ccco3)n2)cc1`?
CDC25B CDK2 inh: 0.08; TAR Tat displ: -0.3

What do the screens show for `O=S(=O)(NC(c1ccccc1)c1ccccc1)c1ccc(N2CCCCS2(=O)=O)cc1`?
TAR Tat displ: 0.36

How did O=c1ccc(-c2ccc(S(=O)(=O)NCc3ccc4c(c3)OCO4)s2)n[nH]1 do in these assays?
TAR Tat displ: 0.31

How did Fc1ccc(-n2cc(-c3ccccc3)c3c(NC4CCCC4)ncnc32)cc1 do in these assays?
CDC25B CDK2 inh: -0.49

How did COc1cc(OC)c(-n2nnc(-c3nc(-c4ccc(OC)c(OC)c4)no3)c2C)cc1Cl do in these assays?
TAR Tat displ: 0.37

(next part)
What do the screens show for `O=C(CC(=O)c1ccc2ccccc2c1O)c1ccco1`?
CDC25B CDK2 inh: -2.4; TAR Tat displ: -1.8

What do the screens show for `CCOC(=O)c1nnn(-c2ccc(Br)cc2)c1C(=O)OCC`?
CDC25B CDK2 inh: -4.6; TAR Tat displ: -0.91

How did C(#Cc1ccc(C#CCN2CCCCC2)cc1)CN1CCCCC1 do in these assays?
CDC25B CDK2 inh: 1.5; TAR Tat displ: 0.32

What do the screens show for `CCOC(=O)C(=CNc1cc(C(C)(C)C)sc1C(C)=O)C(=O)OCC`?
CDC25B CDK2 inh: -2

Results for Cc1ncc(-c2ccc(S(=O)(=O)NC3CCCC3)cc2)o1 ?
TAR Tat displ: 0.25

What do the screens show for `Cc1cc2c(cc3c(SCC(=O)Nc4ccc(Cl)cc4F)nncn32)o1`?
TAR Tat displ: 1.4

Results for CCN(CC)c1ccc(C2C(C(=O)OC3CCCC3)=C(C)NC3=C2C(=O)C(C(=O)OC)C(C)C3)cc1 (stereo not drawn) ?
CDC25B CDK2 inh: -0.41; TAR Tat displ: 0.85

How did Cc1ccc(Cl)cc1N1CCN(c2c(-c3ccc4c(c3)OCC(=O)N4)c(=O)c2=O)CC1 do in these assays?
TAR Tat displ: -2

Results for O=C(CSc1nc2nc[nH]c2c(=O)[nH]1)NC1CCCCC1 ?
CDC25B CDK2 inh: -1.8; TAR Tat displ: 3.3

What do the screens show for `O=C1N(Cc2c(F)cccc2Cl)C2CS(=O)(=O)CC2N1c1ccc(F)cc1` (stereo not drawn)?
TAR Tat displ: -0.28

Results for Cc1nc2scc(C)n2c(=O)c1S(=O)(=O)Nc1ccc(Br)cc1F ?
CDC25B CDK2 inh: -0.62; TAR Tat displ: 1

What do the screens show for `Cc1c(C(=O)NCCCN2CCCC2=O)oc2ccc(S(=O)(=O)N3CC(C)CC(C)C3)cc12` (stereo not drawn)?
CDC25B CDK2 inh: 0.54

How did O=C(O)COCC(=O)NCc1nc(-c2ccc(C(F)(F)F)cc2)no1 do in these assays?
CDC25B CDK2 inh: -1.2

Results for O=C(CSC1=NCCS1)NC1Cc2ccccc2C1 ?
CDC25B CDK2 inh: -1.4

Results for CS(=O)(=O)c1ccc(-c2nnn(CC(=O)O)n2)cc1 ?
CDC25B CDK2 inh: 0.66; TAR Tat displ: 0.76

What do the screens show for `CCOC(=O)c1nc2c(=O)[nH]c3cc(C)ccc3n2n1`?
CDC25B CDK2 inh: 0.14; TAR Tat displ: 0.82

Results for CC(C)Sc1ncc(Cl)c(C(=O)N(Cc2ccc(C(C)(C)C)cc2)C2CCS(=O)(=O)C2)n1 (stereo not drawn) ?
CDC25B CDK2 inh: -1.8; TAR Tat displ: 0.01

Results for CCN1C(=O)C(O)(CC(=O)c2cc(C(C)C)ccc2C)c2ccccc21 (stereo not drawn) ?
CDC25B CDK2 inh: -1.9

Results for CCOC(=O)c1oc2cc3sc(N(C)C)nc3cc2c1C ?
CDC25B CDK2 inh: -1.1; TAR Tat displ: 1.6

What do the screens show for `O=C(Nc1cc2ccccc2cn1)c1cccc2c1OCCCO2`?
CDC25B CDK2 inh: -1.9

Results for NC(=O)CSc1cn(CC(=O)N2CCCC2)c2ccccc12 ?
TAR Tat displ: -1.4

What do the screens show for `O=C(Nc1ccc(F)cc1F)C1Nc2ccccc2S(=O)(=O)N1` (stereo not drawn)?
TAR Tat displ: -0.33

Results for O=C(NCc1cccnc1)Nc1cc(Cl)sc1Cl ?
CDC25B CDK2 inh: 0

Results for COc1cccc(NC(=O)N2c3ccccc3Sc3ccccc32)c1 ?
CDC25B CDK2 inh: -6.8; TAR Tat displ: 1.1

How did Cc1cc(=O)n2[nH]c(CN(C(=O)C(C)C)c3ccccc3)nc2n1 do in these assays?
CDC25B CDK2 inh: -1.7; TAR Tat displ: 0.21

What do the screens show for `O=C(CN1C(=O)CSc2ncccc21)NC1CCCC1`?
CDC25B CDK2 inh: 0.61; TAR Tat displ: -1.5

How did O=c1c2sc3ccccc3c2[nH]c(=S)n1C1CCCC1 do in these assays?
CDC25B CDK2 inh: -2.6

Results for CC(=O)Cn1c2ccccc2n2nc(CCC(=O)O)c(=O)nc12 ?
CDC25B CDK2 inh: -0.19

Results for CCn1ccc(C(=O)Nc2ccc(Cl)cn2)n1 ?
CDC25B CDK2 inh: 0.7; TAR Tat displ: -0.03

Results for Cc1cc2c(cc3c(SCc4nc(-c5cccs5)oc4C)nnc(C)n32)o1 ?
TAR Tat displ: 0.67

What do the screens show for `CC(C)S(=O)(=O)c1csc(C(=O)OCC(=O)c2ccc(Cl)cc2)c1N`?
CDC25B CDK2 inh: -3.5

Results for Cc1c(NC(=O)C2CC(c3cccc(Br)c3)=NO2)c(=O)n(-c2ccccc2)n1C (stereo not drawn) ?
CDC25B CDK2 inh: -0.41; TAR Tat displ: -0.97

How did Cc1c(C(=O)Nc2ccc(Br)cc2F)oc2ccc(S(=O)(=O)N3CCCC3)cc12 do in these assays?
TAR Tat displ: 1.9

What do the screens show for `C=CCNc1sc(C(=O)c2ccccc2)c(N)c1C#N`?
CDC25B CDK2 inh: -1.1

Results for CCC(=O)NC(c1ccc(N(C)C)cc1)c1ccc2cccnc2c1O (stereo not drawn) ?
CDC25B CDK2 inh: -0.84

How did Cn1c(=O)c2c(nc3n2CCCN3C(C)(C)CO)n(C)c1=O do in these assays?
CDC25B CDK2 inh: -1.8

What do the screens show for `Cc1cccc2cc3c(nc12)N(S(=O)(=O)c1ccc2c(c1)OCCO2)CC3`?
CDC25B CDK2 inh: -0.6; TAR Tat displ: -1.4

How did COC(=O)C1CSCC/C1=N\Nc1ccc(Cl)cc1Cl (stereo not drawn) do in these assays?
CDC25B CDK2 inh: -0.65

Results for CC(C)Sc1ccc(C(F)(F)F)cc1[N+](=O)[O-] ?
CDC25B CDK2 inh: -1.1
